Source: PubChem
miR-21 FLuc – raises the signal of a miR-21 reporter; HeLa miR-21 FLuc reporter, luciferase, 48 h; Potency, µM (doses to about 38.3 µM), inactives show top-dose reporter change, positive = more light; 340,000 tested, under 10 active; AID 2288; active = well fitted rising curve with a large enough effect; inconclusive = small, poorly fitted or top-dose-only effect; inactive = no such curve, though single readings can be large or run the other way;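 further: % of control where 0% means no effect; miR-21 action dims this reporter so a rising signal means less miR-21 action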
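Using DMEM plus 10% FBS, HeLa miR-21-FLuc cells are incubated with test compounds (final up to about 40uM) for 48 hours; firefly luciferase signal is then imaged following reagent-mediated lysis.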
Rango release inh – inhibitors of RanGTP-induced Rango-importin beta complex dissociation; Biochemical FRET Rango-importin beta, RanGTP-induced dissociation; Potency, µM (series often up to 46.1 µM), for inactives: at the top dose activity change, negative = inhibition; 340,000 compounds, 0.071% hits; active means falling FRET ratio curve, often poorly fitted, with flat reads before Ran was added; inconclusive means other falling curves, or compound fluorescence or quenching; inactive means flat or rising ratio curve;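 further: potency means the concentration at half of the fitted maximal effect; % of control where 0% means no effect; nearly all actives have a fitted effect of over 45% in size; -100% = wells without RanGTP and RCC1; the record marks most hits as doubtful in a second field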
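Rango (0.1 uM)–importin beta (0.25 uM) complex; RanGTP-RCC1 trigger; 45 min RT; CFP/YFP FRET read.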
Rango complex inh – prevents formation of the Rango-importin beta complex; Q14974; Rango CFP/YFP FRET sensor + importin beta, 45 min; Potency, µM (titrated, usually from 92.2 µM), without a hit: at the top dose inhibition of complex formation; 340,000 compounds, 0.031% hits; active = rising FRET ratio curve, often small or poorly fitted; inconclusive = mostly compound fluorescence or quenching in the first reads; inactive = flat curves in all reads;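 further: potency means the concentration at half of the fitted maximal effect; 0% = DMSO wells and 100% = buffer wells lacking importin beta; nearly all actives have a fitted effect of over 15% in size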
Target sequence (Q14974 whole entry, looked up): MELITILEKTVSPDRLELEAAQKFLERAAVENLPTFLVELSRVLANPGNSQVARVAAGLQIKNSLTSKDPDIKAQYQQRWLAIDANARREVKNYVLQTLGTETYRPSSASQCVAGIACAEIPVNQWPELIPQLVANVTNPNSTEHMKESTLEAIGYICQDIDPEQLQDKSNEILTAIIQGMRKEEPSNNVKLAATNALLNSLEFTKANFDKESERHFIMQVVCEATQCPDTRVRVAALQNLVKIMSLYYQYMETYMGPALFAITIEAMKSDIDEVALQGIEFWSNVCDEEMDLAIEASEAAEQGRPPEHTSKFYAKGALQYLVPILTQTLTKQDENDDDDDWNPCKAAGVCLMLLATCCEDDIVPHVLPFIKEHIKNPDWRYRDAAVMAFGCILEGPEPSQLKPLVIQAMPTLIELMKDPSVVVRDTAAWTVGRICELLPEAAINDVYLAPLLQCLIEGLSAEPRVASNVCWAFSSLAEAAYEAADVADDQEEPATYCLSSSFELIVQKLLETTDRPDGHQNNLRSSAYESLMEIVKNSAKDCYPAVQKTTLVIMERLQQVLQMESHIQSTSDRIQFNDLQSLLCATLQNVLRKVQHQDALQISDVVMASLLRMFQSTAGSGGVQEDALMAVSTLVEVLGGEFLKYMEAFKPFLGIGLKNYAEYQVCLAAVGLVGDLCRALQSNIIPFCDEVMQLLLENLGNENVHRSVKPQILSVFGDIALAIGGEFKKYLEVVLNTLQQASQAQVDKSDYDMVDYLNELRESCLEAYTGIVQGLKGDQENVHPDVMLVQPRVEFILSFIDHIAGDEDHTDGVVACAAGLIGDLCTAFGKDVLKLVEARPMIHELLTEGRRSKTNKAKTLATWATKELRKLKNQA
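Inhibition scored from the CFP 486 nm/YFP 530 nm FRET ratio 45 min after adding 0.125 microM importin beta to 50 nM Rango biosensor preincubated 5 min with compound (room temperature, PBS with DTT, Tween-20, BSA). No-importin wells as positive control.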
GLA inh pH 4.5 – blocks human alpha-galactosidase A at pH 4.5; activity change, negative = inhibition, % at 105 µM; purified enzyme, 4-MU-alpha-Gal fluorescence, pH 4.5; 230,000 tested, under 10 active; AID 1467; P06280; inconclusive = small, poorly fitted or top-dose-only inhibition, or a rising curve; inactive = flat fitted curve, though single readings scatter; no compound was filed as active;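 further: 0% = full activity with enzyme and -100% = basal without enzyme; dose as in the result columns while the protocol names 77 µM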
* marks the source's active call; other numbers are inactive results; ? = inconclusive; nt = no result given; [ ] = another dose, or the depositor's remark.

SMILES	miR-21 FLuc	Rango release inh	Rango complex inh	GLA inh pH 4.5
COc1ccc(CCn2c(-c3ccccc3)nc3c(c(=O)c4ccccc4n3C)c2=O)cc1	-3%	nt	nt	-1
c1ccc(CSc2n[nH]c(-c3ccco3)n2)cc1	-43%	-3%	-0.5%	-3
COc1ccc2nc(NC(=O)Cn3cnc4c(=O)n(C)c(=O)n(C)c43)sc2c1	-3%	11%	5.8%	5
COC(=O)c1sccc1NC(=S)N1CCCCC1	-4%	0%	-0.1%	3
COc1ccc(CNC(=O)C2CCCN(S(=O)(=O)N3CC(C)CC(C)C3)C2)c(OC)c1 (stereo unspecified)	3%	10%	?	nt
CC(C)(C)C(=O)N1CCN(c2nc3ccccc3o2)CC1	-25%	13%	-1.4%	3
COC(=O)[C@@]12CCCCN1[C@H](c1ccc(-c3cccc(Cl)c3)c(OC)c1)[C@@H]1C(=O)N(C)C(=O)[C@@H]12	nt	10%	-0.7%	nt
CCCCc1nc2sc3c(=O)n(N)cnc3c2c2c1CCCC2	1%	30%	-2.1%	0
Fc1ccccc1/C=N/Nc1nn[nH]n1	-1%	1%	-0.1%	-6
NC(=S)Nc1cc(Cl)cc(Cl)c1	26%	10%	-1.3%	-5
CC(C)(C)NC(=O)C(c1cccs1)N(CC1CCCO1)C(=O)Cn1nnc(-c2cccs2)n1 (stereo unspecified)	-6%	-3%	0.0%	-10
O=C(CCCc1c[nH]c2ccccc12)NCc1ccccc1F	-10%	4%	-0.4%	nt
O=C(Cn1cnc2ccccc2c1=O)NCCC(=O)N1CCN(c2ccccc2)CC1	-2%	2%	-1.6%	0
Cc1ccc(NC(=O)CN2C(=O)NC(Cc3ccccc3)C2=O)cc1 (stereo unspecified)	0%	8%	-3.6%	0
O=C(NCC(=O)N1CCN(S(=O)(=O)c2ccc3c(c2)OCCO3)CC1)c1ccccc1Cl	nt	6%	0.6%	nt
CCOC(=O)N/N=C\c1ccc(-c2cc(Cl)ccc2Cl)o1	-12%	-6%	-1.7%	7
O=C(O)c1cccc(-c2ccc(/C=N/n3cnc4sc5c(c4c3=O)CCCC5)o2)c1	-19%	nt	nt	2
CCc1nc2ccccc2c(C(=O)OCC(=O)N(C)Cc2ccccc2)c1C	nt	22%	0.5%	nt
O=C1c2ccccc2NC2(CCCCC2)N1c1ccc(O)cc1	-19%	-10%	-1.6%	-1
O=c1cc(O)nc(-c2ccc(Cl)cc2)s1	-1%	?	?	3
CC(O)CNCc1ccc(Cl)cc1Cl (stereo unspecified)	-1%	17%	-0.1%	2
O=C(Cn1c2ccccc2c(=O)c2ccccc21)Nc1ccccc1F	-5%	?	?	5
CCOC(=O)n1c(=O)n(Cc2ccccc2C)c2ccccc21	-7%	-3%	4.1%	-4
C[C@H](NC(=O)C1CC(=O)N(c2ccc3c(c2)OCCO3)C1)C(=O)NCc1ccco1 (stereo partly specified)	0%	-4%	5.4%	nt
N#Cc1ccc(C(=O)NCC2CCCCC2)cc1	-22%	-11%	-0.8%	nt
CCc1ccc(OCC(=O)N2CCN=C2c2ccccc2)cc1	-1%	-2%	-0.1%	4
COC(=O)c1c(N)sc(C(=O)NCCc2ccccc2)c1C	?	10%	5.9%	nt
COc1ccc(CNC(=O)C(=O)NCCC2CCCCN2S(=O)(=O)c2ccc(C)cc2)cc1 (stereo unspecified)	nt	0%	0.8%	nt
O=C1[C@H](Cc2ccccc2)NCCCC[C@H](c2ccc(Cl)cc2)N1Cc1ccc(Cl)cc1	nt	7%	-2.1%	nt
CC(C)c1nc2oc3c(N4CCNCC4)ncnc3c2c2c1CCC2	nt	7%	-0.1%	nt
COc1c(F)c(F)c(-c2csc(N)n2)c(F)c1F	nt	3%	2.7%	nt
N#CC(C#N)=CC1=C2OC(c3ccccc3)=CC(c3ccccc3)=C2CCC1	-3%	4%	2.0%	12
CC(=O)NNc1nc(-c2ccc(C)cc2)cs1	-33%	-17%	-4.0%	0
COc1ccc(S(=O)(=O)NNC(=O)c2cccs2)cc1	-6%	12%	?	-2
Cc1cc(=O)oc2c(C)c(OC(C)C(=O)N3CC[C@@]4(O)CCCC[C@H]4C3)ccc12 (stereo partly specified)	-1%	-12%	-0.2%	nt
COc1cc(NC(=O)CCCc2c[nH]c3ccccc23)cc(OC)c1	2%	-6%	0.9%	-8
CCOc1ccc(C(=O)NC(=S)Nc2ncccc2C)cc1[N+](=O)[O-]	-51%	-12%	-1.2%	-4
COc1ccc(OC)c(CNC(=O)CCN2C(=O)COc3ccccc32)c1	-4%	23%	-1.8%	-3
Cc1cccc(C)c1NC(=O)C1CSC2(C)CCC(=O)N12 (stereo unspecified)	nt	10%	0.4%	nt
N#Cc1ccc(C(=O)OCC(=O)N2CCN(C(=O)c3ccco3)CC2)cc1	nt	-12%	-2.4%	nt
O=C(c1ccccc1)c1ccc(OC(=O)N2CCCC2)cc1	-31%	-17%	-1.3%	-7
CN1CCN(C(=O)c2ccccc2NC(=O)CCN2C(=O)c3ccccc3C2=O)CC1	-1%	8%	?	3
Cc1ccc(-n2c(C)cc(/C=C3/C(=N)N4C(c5ccccc5)=CSC4=NC3=O)c2C)cc1	-1%	8%	-0.2%	-1
COC(=O)c1cccc(NC(=O)c2cccnc2C(=O)O)c1C	-5%	7%	-0.3%	1
O=C(NCc1ccccc1)C1=C[C@@H](c2coc3ccccc3c2=O)C[C@@H](OCCCCO)O1	-2%	-1%	4.9%	-1

In a second layout: results already given
miR-21 FLuc,Rango release inh,Rango complex inh,GLA inh pH 4.5,Structure
-51%,-12%,-1.2%,-4,CCOc1ccc(C(=O)NC(=S)Nc2ncccc2C)cc1[N+](=O)[O-]
nt,3%,2.7%,nt,COc1c(F)c(F)c(-c2csc(N)n2)c(F)c1F
-33%,-17%,-4.0%,0,CC(=O)NNc1nc(-c2ccc(C)cc2)cs1
-2%,-1%,4.9%,-1,O=C(NCc1ccccc1)C1=C[C@@H](c2coc3ccccc3c2=O)C[C@@H](OCCCCO)O1
-5%,7%,-0.3%,1,COC(=O)c1cccc(NC(=O)c2cccnc2C(=O)O)c1C

(continued)
SMILES	miR-21 FLuc	Rango release inh	Rango complex inh	GLA inh pH 4.5
Cc1cccc(C)c1NC(=O)CNC(=O)c1cnccn1	nt	6%	2.3%	nt
CC(C)[C@H](NC(=O)c1ccc(F)cc1)C(=O)N(C)Cc1cccs1	nt	-11%	6.4%	nt
CCc1nnc(NS(=O)(=O)c2ccccc2)s1	-2%	-13%	-1.3%	nt
CC1(C)OC(=O)CC1C(=O)NCc1ccccc1 (stereo unspecified)	0%	-4%	-3.9%	3
O=C(OCC(=O)N1CCN(C(=O)COC(=O)c2ccccc2NCCO)CC1)c1ccccc1NCCO	nt	-14%	-2.3%	nt
CN(C)S(=O)(=O)c1ccc(Cl)c(C(=O)OCC(=O)NC(=O)NC2CCCC2)c1	nt	-2%	-0.4%	nt
CC(C)CC(=O)Nc1ccc(F)c(Cl)c1	-5%	7%	-0.5%	0
O=S1(=O)N[C@@H](CC2CCCCC2)COc2cc(Br)ccc21	nt	-19%	-0.9%	nt
CC(C)(O)C#Cc1ccc(CNC[C@H]2O[C@@H](n3cnc(C(N)=O)n3)[C@H](O)[C@@H]2O)s1	nt	18%	-2.1%	nt
O=C(NCc1ccc(Cl)cc1)C1CCN(C(=O)c2ccc(Cl)cc2)CC1	nt	-19%	6.6%	nt
COc1ccc2oc(=O)cc(CN(C)Cc3ccccc3)c2c1	12%	-11%	0.5%	nt
COc1cccc(N/C=C/C(=O)c2ccc(C)cc2)c1	-32%	15µM*	?	nt
Cc1onc(-c2ccccc2)c1C(=O)NCCc1c[nH]c2ccccc12	-4%	6%	-4.9%	0
COC(=O)c1c(NC(=O)c2ccco2)sc(C(=O)N2CCCC2)c1C	-10%	-3%	-2.3%	0
Cc1cc2ccccc2nc1SCC(=O)N1CCCC1	-14%	0%	-0.6%	0
O=C(NCc1n[nH]c(=S)n1-c1cccc(C(F)(F)F)c1)c1ccc(S(=O)(=O)N2CCCC2)cc1	5%	-7%	-0.4%	-1
O=C(O)CCS(=O)(=O)c1cccc2cccnc12	-7%	-4%	-0.2%	10
CC(C)C(OC(=O)c1cc2sccc2n1C)C(=O)NCC1CCCO1 (stereo unspecified)	3%	-15%	0.0%	0
CCCOc1ccc(NC(=O)CC2Nc3ccccc3NC2=O)cc1 (stereo unspecified)	3%	-4%	-5.4%	8
Cc1ccc(NCc2n[nH]c(=S)n2-c2cccc(Cl)c2)cc1	-5%	-6%	-1.3%	16
Clc1ccc(/C=N/N2CCN(Cc3ccccc3Cl)CC2)cc1	3%	-7%	2.9%	6
OCCCC1CCCCN1Cc1nc(Cc2ccccc2Cl)no1 (stereo unspecified)	-5%	1%	-0.3%	-6
CCOc1ccc(S(=O)(=O)NCCC(=O)NCCc2ccc(OCC)c(OCC)c2)cc1	nt	0%	-5.3%	nt
CC(C)(C)NC(=O)CN1CCCN(C(=O)c2cccc(S(=O)(=O)N3CCc4ccccc43)c2)CC1	nt	0%	0.5%	nt
COc1ccc(CN=CC2=C(O)CC(C)(C)CC2=O)cc1	-24%	10%	-2.7%	10
COc1cc(OC)cc(C(=O)n2cnnc2N)c1	-4%	-11%	2.2%	-5
CC(=O)c1ccc(NC(=O)CSc2nc3nn(-c4ccccc4)c(=O)c-3c3n2CCCCC3)cc1	nt	0%	-0.4%	nt
Cc1ccc(OC(=O)C23CC4CC(CC(C4)C2)C3)c(C)n1	-7%	-4%	7.3%	-6
Cc1nnc2sc(SCc3ccc(Br)cc3)nn2c1=O	-1%	2%	-1.0%	-1
COc1ccc(C2(C(=O)c3ccccc3)C(=O)c3ccccc3C2=O)cc1	-35%	33%	5.4%	-9
CCCCNC(=S)NC1CCCC1	-5%	0%	-1.3%	-1
CCn1nnc2cc(C(=O)Nc3ccc(C(=O)OC(C)C)cc3)ccc21	nt	-20%	?	nt
Cc1nc(CSc2nnc(N)s2)cs1	-1%	-12%	0.2%	5
COc1ccc(N2CCN(C(=O)c3ccc(N(C)S(=O)(=O)c4ccc(OC)cc4)cc3)CC2)cc1	11%	20%	-2.6%	-3
CC1(C(=O)O)CCC(C(=O)Nc2cccc(F)c2)C1(C)C (stereo unspecified)	2%	?	-1.2%	nt
Cc1ccc(CNC(=O)Cc2ccc(NC3=NC4CS(=O)(=O)CC4S3)cc2)cc1 (stereo unspecified)	1%	-5%	3.3%	nt
NC(=O)CSc1nnc2ccc(-c3ccc(F)cc3)nn12	0%	12%	0.3%	4
COc1ccc(Nc2ncnc3ccc(Br)cc23)c(OC)c1	-2%	-9%	3.1%	nt
CC(NC(=O)CCSCCC(=O)NC(C)c1ccccc1)c1ccccc1 (stereo unspecified)	-4%	-8%	1.5%	4
O=C(Nc1ccccc1F)c1ccc2snnc2c1	-47%	-8%	0.4%	nt
COc1ccc(CCNC(=O)c2ccccc2NC(=O)CN2CCN(c3ccccc3O)CC2)cc1	nt	0%	-1.7%	nt
O=S(=O)(NCC(O)c1ccccc1)c1ccc(-c2ccccn2)s1 (stereo unspecified)	3%	7%	-1.5%	-3
CCOC(=O)CNC(=S)N(CCCN1CCCCC1)Cc1cccs1	4%	4%	-2.2%	1[21.1 µM]
Cc1cc(C)nc(NC2=NCCN2C(=O)NC2CCCCC2)n1	-11%	29%	2.9%	2
O=C(Nc1ccccc1)c1sc(Cl)nc1-c1ccccc1	-1%	0%	-0.9%	-14
O=C(Cn1cnc(Cl)c1Cl)c1ccc(F)cc1	-1%	0%	3.2%	3
COc1ccc(NC(=O)CSc2nnc(Cn3c(=O)sc4ccccc43)n2C)cc1OC	-1%	-3%	0.6%	6
CCOc1ccc(NC(=O)CC2C(=O)N(c3ccc(OCC)cc3)C(=S)N2C2CC2)cc1 (stereo unspecified)	-3%	-14%	-0.4%	nt
O=C(c1ccc(F)cc1)C(C(=O)N1CCCCC1)n1ccccc1=O (stereo unspecified)	-3%	0%	1.8%	-9
O=C(Nc1cc(S(=O)(=O)N2CCCCC2)ccc1Cl)C1=NN(c2ccccc2)C(=O)CC1	-1%	8%	0.3%	nt
Cn1c(SCC(=O)Nc2ccc(N3CCOCC3)cc2)nnc1-c1ccco1	0%	14%	1.9%	nt

The list is partial (hit frequency here may not be typical).
